# AmpC inh no det = Promiscuous and Specific Inhibitors of AmpC Beta-Lactamase (assay without detergent) | P00811 | AmpC nitrocefin hydrolysis, absorbance 480 nm, no detergent; potencies from a single point are estimates | Potency, µM (titrated, usually from 28.7 µM), without a hit: top-dose activity change, negative = inhibition | 71,000 compounds, 1.8% hits; active = falling curve, for most hits resting on a single point; inconclusive = weak or doubtful change; inactive = flat or rising curve; also: % of control where 0% means no effect; about half of the hits show no inhibition at the top dose; a quarter of the inactives give rising signals
# Target sequence (P00811 whole entry, looked up): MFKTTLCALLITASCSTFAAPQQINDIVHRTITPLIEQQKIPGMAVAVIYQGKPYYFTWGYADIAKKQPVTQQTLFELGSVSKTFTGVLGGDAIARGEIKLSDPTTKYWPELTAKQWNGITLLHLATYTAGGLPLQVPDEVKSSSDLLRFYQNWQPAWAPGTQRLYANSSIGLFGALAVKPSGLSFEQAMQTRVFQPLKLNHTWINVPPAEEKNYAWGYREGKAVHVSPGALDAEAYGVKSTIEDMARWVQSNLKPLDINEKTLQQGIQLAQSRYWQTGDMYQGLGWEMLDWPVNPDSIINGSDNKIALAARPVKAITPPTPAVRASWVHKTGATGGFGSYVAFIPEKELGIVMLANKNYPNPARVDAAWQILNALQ
#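 AmpC, 20 mM phosphate pH 7.0; 15 min cpd preinc, RT; start with nitrocefin (800 uM stock); A480 kinetic read, 20 s intervals, 4 min. No-enzyme wells = negative control.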
# Numbers without * were called inactive; ? = inconclusive; & = joins results of further samples; [ ] = remark or other dose. Potency is read from the fitted curve at half-maximal effect. Some of the compounds tested, so the mix of outcomes need not match the whole.
# A first look, two compounds:
SMILES,AmpC inh no det
CCc1nnc(NC(=O)c2ccc(-c3cccc(C(F)(F)F)c3)o2)s1,-2%
COCCOC(=O)C1=C(C)NC2=C(C(=O)CC(C)(C)C2)C1c1cc2c(cc1Br)OCO2 (stereo unspecified),64%

# Results (from the top)
SMILES,AmpC inh no det
CCc1nnc(NC(=O)c2ccc(-c3cccc(C(F)(F)F)c3)o2)s1,-2%
COCCOC(=O)C1=C(C)NC2=C(C(=O)CC(C)(C)C2)C1c1cc2c(cc1Br)OCO2 (stereo unspecified),64%
Nn1c(SCC(=O)Nc2ccc(F)c(F)c2)nnc1C1CCCCC1,24%
COc1cc2c(cc1OC)C1(NCC2)C(=O)Nc2ccccc21 (stereo unspecified),-9%
Cc1ccc(CS(=O)(=O)Cc2ccc(C(=O)N3CCC4(CC3)OCCO4)o2)cc1,32%
COc1cc(OC)c(NC(=O)Cn2cccc2)cc1Cl,-2%
Cc1ccc(NC(=O)c2cc(-c3cccc(O)c3)on2)cc1C,-18%
CC1CCN(C(=O)C(Cc2ccccc2)NS(=O)(=O)c2ccc3c(c2)oc(=O)n3C)CC1 (stereo unspecified),49%
CCCn1c(-c2ccc(F)cc2)nc2c(N3CCN(CCn4ccnc4)CC3)nc(C)nc21,141%
CSc1ccc(S(=O)(=O)NC2CCCCCC2)cc1,-4%
COc1cccc(Cn2c(=O)c(-c3ccc(Cl)cc3)nc3cnc(N(C)C)nc32)c1,-8%
COC(=O)Cn1c(CCS(=O)(=O)c2ccc(C)cc2)nc2ccccc21,16%
O=C(Cn1cnc2c(nnn2-c2ccccc2)c1=O)NCCc1ccccc1,-3%
O=S(=O)(NCC(c1cccnc1)N1CCN(c2ccc(F)cc2)CC1)c1cc(F)ccc1F (stereo unspecified),65%
O=C(CSc1nc2cc3c(cc2c(=O)n1CCC1=CCCCC1)OCO3)NCc1ccco1,13µM*
c1ccc(N2CCN(c3nc4cc5c(cc4s3)OCCO5)CC2)cc1,-12%
Cc1ccc(-c2csc3ncnc(-n4nc(C)cc4N)c23)cc1,6%
COC(=O)c1c(C)[nH]c(C(C)=O)c1C,-6%
COc1ccccc1NC(=O)c1ccc(S(=O)(=O)N2CCCC2)cc1,17%
CCON=C1C(C)(C)C(C)(C)C(C)(C)C1(C)C,-3%[5.75 µM]
O=C(Oc1ccc(Cl)cc1)N1CCCCC1,1%
NCCC(=O)NCCc1cnc[nH]1,-2%[12.8 µM]
CCn1c(=O)n(CCOC)c(=O)c2c3c(sc21)CCCC3,32%
Cc1cccc(CC2CC(=O)N(c3ncccn3)C2=O)c1 (stereo unspecified),13%
COc1cccc(/C(O)=C2/C(=O)C(=O)N(CCN3CCOCC3)C2c2cccnc2)c1 (stereo unspecified),-1%

# Overlap with the part before: 4 entries; new compounds follow.
SMILES,AmpC inh no det
NCCC(=O)NCCc1cnc[nH]1,-2%[12.8 µM]
CCn1c(=O)n(CCOC)c(=O)c2c3c(sc21)CCCC3,32%
Cc1cccc(CC2CC(=O)N(c3ncccn3)C2=O)c1 (stereo unspecified),13%
COc1cccc(/C(O)=C2/C(=O)C(=O)N(CCN3CCOCC3)C2c2cccnc2)c1 (stereo unspecified),-1%
CCOc1ccc(C2CC(c3ccc(OC)cc3)n3ncnc3N2)cc1 (stereo unspecified),106%
c1ccc(N2CCCC3(CCNCC3)C2)cc1,4%
CCCC(=O)Nc1ccc(NC(=O)c2ccco2)cn1,6%
COCC(=O)N1CCCc2ccccc21,6%
O=C(N1CCOCC1)N1CCN(S(=O)(=O)N2CCOCC2)CC1,-3%
COCCNC(=O)c1cn(C)c(=O)c2cc(OC)c(OC)cc12,1%
Cc1cc(C(C)(C)C)cc(C)c1CC1=NCCN1,2%[12.8 µM]
CCOC(=O)c1[nH]cnc1C(=O)O,-24%
CC1CN(S(=O)(=O)c2cccc(C(=O)OCc3cc(=O)oc4cc(O)ccc34)c2)CC(C)O1 (stereo unspecified),8%
Cc1nc(N=Nc2cc(S(=O)(=O)O)c3cc([N+](=O)[O-])cc(S(=O)(=O)O)c3c2)c(COP(=O)(O)O)c(C=O)c1O,-9%&0%
CCOc1ccc(NC(=O)CN2CCN(S(=O)(=O)c3ccc(Cl)cc3)CC2)cc1,91%
CCN1C(=O)C(NC(C)=O)c2cc(OC)ccc21 (stereo unspecified),4%
Cn1c(C(=O)N2CCN(c3nc4ccccc4s3)CC2)cc2sccc21,62%
CC(C)n1c2ccccc2c2nc3ccccc3nc21,41%
Cc1cc2ccc(=O)oc2cc1OC[C@@H](O)C(C)(C)O,4%
O=c1c2ccccc2oc2nc(-c3ccco3)n(Cc3ccccc3)c(=O)c12,33%
COc1ccc(C2C=C(C)Nc3nc(SC)nn32)cc1 (stereo unspecified),2%
COc1cccc(Nc2ncc3nc(C)c(=O)n(Cc4cccs4)c3n2)c1,30%
CCOC(=O)COc1nc(OC)nc(N2CCOCC2)n1,-5%
Cc1cccnc1NC1=NCC(C)S1 (stereo unspecified),-5%
CCOC(=O)Cc1csc(NC(=O)c2ccc(S(=O)(=O)N3CCCCC3)cc2)n1,39%
Cc1ccc(Cn2nc(C)c(NC(=O)c3cc(-c4ccco4)on3)c2C)cc1,25%
COc1ccccc1CNc1cc(-c2cccc(C#N)c2)ncn1,26%
O=C(c1cccc(S(=O)(=O)N2CCOCC2)c1)N1CCCC1,-10%
O=C(CSc1nnc(-c2ccncc2)n1CC1CCCO1)NCc1ccccc1 (stereo unspecified),-4%

# 2 entries from above, as labelled records:
CCOC(=O)COc1nc(OC)nc(N2CCOCC2)n1
  AmpC inh no det: -5%
Cc1cccnc1NC1=NCC(C)S1 (stereo unspecified)
  AmpC inh no det: -5%

# The main list resumes with the two entries that preceded the break.
SMILES,AmpC inh no det
O=C(c1cccc(S(=O)(=O)N2CCOCC2)c1)N1CCCC1,-10%
O=C(CSc1nnc(-c2ccncc2)n1CC1CCCO1)NCc1ccccc1 (stereo unspecified),-4%
O=C(CC1CCCC1)Nc1nnc(C2CC2)s1,-12%
O=C(NCC1COc2ccccc2O1)C1CCC(CNc2c(N3CCCCC3)c(=O)c2=O)CC1 (stereo unspecified),24%
CCOC(=O)C(CC)Sc1nnc2n1C(C)(C)Cc1ccccc1-2 (stereo unspecified),41%
CC(C)C(OC(=O)c1ccco1)C(=O)NCc1cccs1 (stereo unspecified),-5%
CCOCCCNC(=O)C(c1ccc(C)cc1)N(Cc1ccc2c(c1)OCO2)C(=O)c1cnccn1 (stereo unspecified),133%
Cc1ccc2nc(NC(=O)Cn3cc4c(n3)CCCCC4)sc2c1,-4%
Cn1cc(-c2nc3cnc(N4CCNCC4)nc3n(C3CC3)c2=O)c2ccccc21,138%
CC(=O)NCCOc1cccc2ccccc12,3%
N#C/C(=C1\CCCN1)c1nc(-c2ccccc2)cs1,2%
CCCC(=O)N(CCc1ccccc1)Cc1nc2ccccc2c(=O)[nH]1,22%
C=CCNc1nc(N(c2ccccc2)c2ccccc2)nc(-n2ccnc2)n1,25%
Cc1cccn2c(=O)c3cc(C#N)c(=NC(=O)c4ccc5c(c4)OCO5)n(CC(C)C)c3nc12,29%
CCOC(=O)c1c(CN2CCN(C)CC2)oc2ccc(OC)cc12,27%
CCCOc1ccc(-c2nc(N)n[nH]2)cc1,-14%
N#Cc1cccc(NC(=O)N2CCC3(CC2)CCN(C(=O)c2cccc(F)c2)CC3)c1,13%
COc1ccccc1C1C=C(c2ccc(Cl)cc2)Nc2nc(N3C(=O)CCC3=O)nn21 (stereo unspecified),133%
CC(C)C(NC(=O)c1ccc(Cl)cc1)C(=O)NC1=NCCS1 (stereo unspecified),3%
O=C(OCC(=O)N1CCN(C(=O)c2ccco2)CC1)c1cc(-c2ccc(F)cc2)nc2ccccc12,104%
Cc1ccc(-n2nc3c(c2NC(=O)c2ccc4c(c2)OCO4)CSC3)c(C)c1,1%
O=C1CC(=O)N(c2ccc(Cl)cc2Cl)C(=O)N1,-15%
Cc1c(N/C=C/C(=O)c2cccs2)c(=O)n(-c2ccccc2)n1C,61%
CCOC(=O)c1c(C)[nH]c(C)c1C(=O)CSc1nc(N)cc(N)n1,-11%
Cc1nnc(NCCc2ccccc2)n(N)c1=O,-14%
O=C(Nc1nc(-c2ccccc2)ns1)c1cccs1,-7%
CC(=O)N(Cc1cc2c(C)cc(C)cc2[nH]c1=O)C1CCCCC1,46%
# More records.
SMILES,AmpC inh no det
O=C(NC(=O)c1ccc(Cl)cc1)Nc1cc(N2CCCCC2)ncn1,0%
O=C(C1CCN(C2CC(=O)N(Cc3ccccc3)C2=O)CC1)N1CCCCCC1 (stereo unspecified),103%
CCN(CC)C(=O)Cn1cnc2ccccc2c1=O,-4%
CC(C)N1CCc2c(sc(NC(=O)c3ccc(S(=O)(=O)N4CCOCC4)cc3)c2C#N)C1,0%
Nc1cccc(NC(=O)c2cccs2)c1,-11%
COc1ccccc1CNC(=O)CN(C)CC(=O)Nc1cccc(F)c1,78%
COC(=O)Oc1c(Br)c(=O)oc2ccccc12,?
COC(=O)C(NC(=O)C(C)Oc1ccccc1)C(C)C (stereo unspecified),6%
Cc1ccc(O)c(NC(=O)c2ccco2)c1,2%
CN(C)CCCNc1ncnc2nc[nH]c12,-3%[5.75 µM]
CCCN(CCO)Cc1ccc(Cl)c(Cl)c1,2%
O=C(NCC1CCCO1)C1CCC(=O)N1CCc1ccccc1 (stereo unspecified),-7%
O=C(COc1ccc(Cl)cc1)N1CCN(C(=O)c2cccc(F)c2)CC1,61%
N#CC1=C(N)SC2(CCCCC2)SC1c1ccccc1 (stereo unspecified),-21%
Cc1nnc(C)n1/N=C/c1ccc2c(c1)OCCO2,3%
Cc1ccc(-n2nc(C)c3c2OC(N)=C(C#N)C3c2ccncc2)cc1 (stereo unspecified),-3%
O=C(NCc1ccc2c(c1)OCO2)C1CCC(CNc2c(N3CCCC3)c(=O)c2=O)CC1 (stereo unspecified),21%
O/N=C/c1c[nH]c2ccccc12,-4%
CCOC(=O)C1CCN(S(=O)(=O)c2ccc3c(c2)CCCN3C(C)=O)CC1,42%
O=C1CC(N(Cc2ccc3c(c2)OCO3)C(=O)Nc2ccc(F)cc2)C(=O)N1c1ccccc1 (stereo unspecified),22%
Cc1cc(C)nc(SCC(=O)Oc2ccc3oc(=O)cc(C)c3c2)n1,8%
O=C(O)c1ccc(CN2CCCCC2)o1,-12%
OC1(c2ccccc2F)CCN(Cc2nnnn2CCc2ccccc2)CC1,77%
Nc1nc(=S)c2ncn([C@H]3O[C@@H](CO)[C@@H](O)[C@@H]3O)c2[nH]1,-1%[12.8 µM]
Cc1cc(C)c2c(CN3CCN(Cc4ccc5c(c4)OCO5)CC3)cc(=O)oc2c1C,97%
# (further entries)
SMILES,AmpC inh no det
CSc1nc(C)cc(OCNC(=O)c2cccs2)n1,-6%
O=C(O)c1ccccc1-c1ccccc1C(=O)c1ccccc1,-1%[5.75 µM]
Nc1nnc(CCc2ccccc2)s1,-3%
C=CCOC(=O)c1ccccc1N,4%
NS(=O)(=O)c1ccc(N=Nc2c(O)c(C(=O)O)cc3ccccc23)cc1,-11%[5.75 µM]
O=C(c1cc2cc(Br)ccc2oc1=O)N1CCN(c2ccccn2)CC1,7%
COc1cccc(OC)c1C(=O)N1CCN(c2c(Cc3ccccc3)c(C)nc3ncnn23)CC1,102%
CC(=NCCc1ccccc1)C1=C(O)CSC1=O,4%
Cc1cnc(C(=O)OCC(=O)N2c3ccccc3NC(=O)C2(C)C)cn1,5%
COc1ccc(Cc2nnc(SCC(=O)NCc3ccco3)o2)cc1,-10%
CC(C)Cn1cc(C(=O)N2CCOCC2)c2c3ccccc3n(C)c2c1=O,18%
COCCNc1cc(-c2ccccc2C)ncn1,20%
CCOC(=O)N1CCC(NC(=O)c2ccc3nc(N4CCOCC4)sc3c2)CC1,48%
C/C(=C\CNc1ncnc2c1ncn2[C@@H]1O[C@@H](CO)[C@@H](O)[C@H]1O)CO,2%
CC(=O)c1ccc(-n2nnnc2SCC(=O)N2CCN(C(=O)c3ccco3)CC2)cc1,32%
Cc1ccc(OCC(=O)N2CCN(C(=O)c3cccs3)CC2)cc1,32%
CCCC(=O)N1CCN(S(=O)(=O)c2cc(Cl)ccc2OC)CC1,50%
COC(=O)c1ccc(C(NC(=O)OCc2ccccc2)/C(=C/[C@@H](C)C(=O)NCc2ccncc2)c2cccnc2)cc1 (stereo partly specified),121%
COCc1[nH]nc2c1C(C1C=CCCC1)C(C#N)=C(N)O2 (stereo unspecified),-9%
COc1cc(Cl)c(S(=O)(=O)n2cnc(C)c2)cc1Cl,14%
CCOC(=O)c1oc2ccc(Br)cc2c1CSc1nnc(C)s1,91%
CC1CCCCC1NC(=O)CSc1nncs1 (stereo unspecified),-8%
Cn1c(SCC(=O)Nc2ccc3c(c2)OCCO3)nnc1-c1ccco1,0%
COc1cc(OC)c(C2N(c3ccccn3)C(=O)C3CCCN32)cc1OC (stereo unspecified),6%
O=C(NCc1nc(-c2ccccc2)no1)c1cccs1,-9%
# Later entries:
SMILES,AmpC inh no det
Cc1cccc(C(C)C)c1NC(=O)c1cccnc1,9%
O=C1NCCCc2c1oc1cc(Br)c(O)c(Br)c21,-22%
O=C(CSc1nnc(-c2cccs2)o1)N1CCOCC1,-17%
COC(=O)c1ccccc1NC(=O)COC(=O)CSCC(=O)N1CCOCC1,13%
O=C(NCc1nc(-c2ccccc2)no1)c1ccc2c(c1)OCO2,0%
Cc1noc(C)c1S(=O)(=O)N1CCCC(C(=O)NCCc2ccc(Cl)cc2)C1 (stereo unspecified),24%
Cc1cccc(C)c1OCc1nnc(SCC(=O)NCCc2ccccc2)o1,32%
COc1ccccc1NC(=O)CSc1nnc(CNC(=O)COc2ccc(Cl)cc2)o1,57%
CN1CCc2c(sc3c2c(=O)n(-c2ccccc2)c2nnc(SCc4ccc(Cl)cc4)n32)C1,91%
CCNC(=O)COC(=O)COc1ccc(Cl)cc1C,10%
O[C@H]1CCCC[C@H]1N1CCC(c2ccccc2)CC1,2%
O=[N+]([O-])c1cccc2cn[nH]c12,8%&8%
